# Screening results deposited in PubChem BioAssay by National Center for Advancing Translational Sciences (NCATS).
# ClpP mod: qHTS Assay for Activators of ClpP; ATP-dependent Clp protease proteolytic subunit (Bacillus subtilis (strain 168)), P80244; purified B. subtilis ClpP, FRET peptide cleavage, 20 min; Potency, µM (doses to about 57.5 µM), for the others: at the top dose activity change, negative = active; actives 1.9% (n = 340,000); AID 651965, 2013; active = well fitted falling curve with a large enough effect; inconclusive = small, poorly fitted or top-dose-only effect; inactive = no such curve, though single readings can be large or run the other way; also: potency is read from the fitted curve at half-maximal effect; the source files actives as falling curves though it sought activators and does not explain the sign; nearly all actives have a fitted effect of over 65% in size; many hits overshoot -100%
# Target sequence (P80244 whole entry, looked up): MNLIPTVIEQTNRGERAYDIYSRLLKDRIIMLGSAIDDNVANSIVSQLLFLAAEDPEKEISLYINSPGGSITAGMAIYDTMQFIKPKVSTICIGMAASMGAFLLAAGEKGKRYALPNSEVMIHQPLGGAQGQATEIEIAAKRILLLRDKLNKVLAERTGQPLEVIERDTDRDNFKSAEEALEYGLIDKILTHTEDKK
#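 ClpP 10 microg/mL final, pH 8 Tris/KCl buffer with BSA, glycerol, Tween-20; compound pinned in; FRET-FV substrate; RT 20 min; Ex320/Em430; ΔFRET vs ADEP 5.8 microM, DMSO, no enzyme.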
# gsp antagonist: gsp mutant antagonism; actives 0.4% (n = 340,000); gsp-mutant cells, cAMP HTRF, 30 min; control for the full effect not named in the record; AID 624288; Potency, µM (highest dose often 76.9 µM), inactives show at the highest dose activity change, negative = inhibition, hits mostly inhibitors; active = falling curve of any shape with a large fitted effect; inconclusive = falling curve, mostly with a smaller effect; inactive = flat or rising curve; cell line not stated here;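 also: intracellular cAMP measured with PDE inhibitor Ro 20-1724 present during compound exposure; potency is read from the fitted curve at half-maximal effect; % is scaled to controls: 0 for no effect and ±100 for the full control effect; nearly all actives have a fitted effect of over 65% in size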
#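 Measurement of cellular cAMP by homogeneous time-resolved fluorescence following a 30 min compound exposure at 37C. The PDE inhibitor […] was present throughout; the assay buffer was DPBS with 0.05% BSA and 0.005% Tween 20.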
# gsp ag: gsp mutant agonism. actives 0.13% (n = 340,000). gsp mutant cells, cAMP HTRF, 30 min; control for the full effect not named in the record. Potency, µM (titrated, usually from 76.9 µM), for the others: at the highest dose activation (cAMP increase), most hits filed as activators; active = well fitted activation curve with a large enough effect; inconclusive = small, poorly fitted or top-dose-only effect, or another doubt; inactive = no such curve, though single readings can be large or run the other way; cell line not stated here;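 also: phosphodiesterase inhibitor Ro 20-1724 added with compounds to block cAMP breakdown; potency is read from the fitted curve at half-maximal effect; nearly all actives have a fitted effect of over 60% in size; about a fifth of the inactives were tested at one dose only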
#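 Cells stably selected in G418 were plated at 2000/well, grown 16-24 hr, then given compounds in DMSO with the PDE inhibitor […] (300 uM solution added) for 30 min at 37C; cAMP was read by HTRF.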
# TRPV1 PAM: human TRPV1 potentiation. Q8NER1. TRPV1-expressing cells, Fluo-8 calcium influx, capsaicin EC20 potentiation; host cell line not named in the record; control for the full effect not named in the record. potentiation, % at 8.33 µM. actives 0.02% (n = 320,000). AID 540277; active means potentiation above 80%; inconclusive means 30% to 80%; inactive means below 30%; also: 0% is about no effect
#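 Fluo-8 calcium influx in TRPV1-expressing cells, kinetic read (ex 480/em 520 nm). Compound added and read 3 min for agonist activity, followed by capsaicin at EC20 final and 2 min further read for enhancement.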
# Sfp PPTase inh: inhibitors of Bacillus subtilis Sfp phosphopantetheinyl transferase. Q9F4F7. Biochemical Sfp PPTase activity, qHTS. Potency, µM, without a hit: max response, negative = inhibition, most hits filed as inhibitors. actives 3.5% (n = 310,000); active = well fitted inhibition curve with a large enough effect; inconclusive = small, poorly fitted or top-dose-only effect, or another doubt; inactive = no such curve, though single readings can be large or run the other way;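 also: the enzyme is Sfp with the accession as filed and its product quenches rhodamine fluorescence; potency is read from the fitted curve at half-maximal effect; 0% = enzyme reaction without inhibitor and -100% = no enzyme wells; top concentration of the series not given in the record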
#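 Fluorescence-quenching assay: 15 nM Sfp-PPTase preincubated 15 min at room temperature with compound, then 5 uM rhodamine-CoA and 12.5 uM BHQ-2-labelled YbbR peptide added. Fluorescence (ex 525/em 598 nm) read at start and after 30 min; difference gives rate.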
# Menin MLL FP FL: inhibitors of human menin-MLL interaction, wild-type MLL peptide. Fluorescence polarization, fluorescein-MLL peptide displacement from menin. FP activity change, % at 61.4 µM. 290,000 tested, under 10 active; inconclusive = falling polarisation curve, or a change in total fluorescence; inactive = total fluorescence flat and polarisation flat or rising; no compound was filed as active; the % refers to the polarisation; negative = inhibition;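 also: % of control where 0% means no effect; inhibitors lower the polarisation; unlabelled MLL peptide was the positive control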
# TRPML1 blocker: blocks the human TRPML1 channel; TRPML1-inducible cells, Ca2+ dye fluorescence, FDSS; active compounds read low; inhibition of EC80 agonist-evoked calcium signal; actives 0.02% (n = 390,000); activity change, negative = inhibition, % (no concentration beside the values); AID 624415; Q9GZU1; in the data active means activity change below about -50%; inconclusive means about -30% to -50%; inactive means above about -30%;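 also: stimulus is agonist 54-4 at its EC80 concentration; % is scaled to controls: 0 for no effect and ±100 for the full control effect; compound concentration not given in the record; the text of the record puts the active cut at -80%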
# Target sequence (Q9GZU1 whole entry, looked up): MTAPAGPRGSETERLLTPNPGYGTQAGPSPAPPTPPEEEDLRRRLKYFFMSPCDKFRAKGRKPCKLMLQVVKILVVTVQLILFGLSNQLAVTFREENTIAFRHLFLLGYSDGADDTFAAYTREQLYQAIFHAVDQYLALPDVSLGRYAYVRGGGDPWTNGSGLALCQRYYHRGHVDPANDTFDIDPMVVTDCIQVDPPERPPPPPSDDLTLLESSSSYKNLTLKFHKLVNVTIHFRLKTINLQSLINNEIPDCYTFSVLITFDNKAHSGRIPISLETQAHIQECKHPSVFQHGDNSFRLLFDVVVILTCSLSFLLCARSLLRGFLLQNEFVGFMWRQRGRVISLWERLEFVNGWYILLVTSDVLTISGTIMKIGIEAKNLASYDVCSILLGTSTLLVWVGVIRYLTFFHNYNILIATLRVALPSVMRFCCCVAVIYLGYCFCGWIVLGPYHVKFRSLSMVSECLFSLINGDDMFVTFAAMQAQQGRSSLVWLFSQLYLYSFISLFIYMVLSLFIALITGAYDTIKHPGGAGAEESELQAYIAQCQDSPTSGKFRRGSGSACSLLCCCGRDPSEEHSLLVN
#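 TRPML1-DL cells, Tet-induced overnight (~16 h, 37 °C) at 1,500 cells/well, were loaded with Ca8 no-wash dye plus quencher for 45-90 min at room temperature. Compounds were pinned during FDSS kinetic reading; agonist 54-4 at EC80 (4 uM final) then added.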
# * marks the source's active call; other numbers are inactive results; ? = inconclusive; . = no result given; & = joins results of further samples; [ ] = remark or other dose.
# Fields: TRPML1 blocker, gsp ag, Menin MLL FP FL, Sfp PPTase inh, ClpP mod, TRPV1 PAM, gsp antagonist
- O=C(O)c1cccc(S(=O)(=O)Nc2ccc3oc(=O)sc3c2)c1
    13, ?, 8.5, 11µM*, -2.4%, 6, 7%
- CC(C)CNC(=O)COC(=O)c1ccc(F)cc1Cl
    1, 4%[15.4 µM], 2.8, 7%, ., -4, .
- COc1ccc2c(=O)c3c(=O)n(Cc4ccco4)c(-c4cc(OC)c(OC)c(OC)c4)nc3oc2c1
    -11, 0%, -2.7, ?, -12%, 29, 13%
- COc1ccc(CCn2c(-c3ccc(Cl)cc3)n[nH]c2=S)cc1OC
    -3, 6%, 0.4, ?, ., -6, -4%
- O=C(CCNc1ccc(F)cc1)c1cc2ccccc2o1
    14, 2%[15.4 µM], 0.8, -6%, ., -9, -3%
- CCCCn1c(=O)[nH]c(=O)c2c1ncn2Cc1ccco1
    -8, ?, 8.1, 10%, -1.5%, 4, 19%
- O=C(NNC(=S)Nc1ccc(Br)cc1)c1ccc(N2CCOCC2)c([N+](=O)[O-])c1
    -3, -23%, -0.4, -1%, 0.8%, 11, 5%
- COCc1[nH]c(=S)c(C#N)cc1C(=O)OC
    13, 19%[15.4 µM], 6.6, 8.9µM*, ., 11, 0%
- COc1ccc(-c2n[nH]c(=S)n2-c2ccc(C)cc2)cc1OC
    -9, 5%, -0.3, ?, ., -1, -18%
- Nc1c(C(=O)CSc2nnc(Nc3ccc(F)cc3)s2)c(=O)[nH]c(=O)n1C1CC1
    -10, 4%, ., ., -0.2%, 16, 1%
- COC(=O)c1ccc(Oc2cc(C)nc(Cl)n2)cc1
    -3, 7%, -0.8, 23%, -2.8%, -5, -2%
- CCOc1ccc(CC(=O)Nc2ccc(S(=O)(=O)N3CCCC3)cc2)cc1
    7, -10%, ., 16%, 2.1%, -2, -14%
- CC(C)C(C(=O)O)N1C(=O)/C(=C/c2cccn2C)SC1=S (configuration not stated)
    -8, 0%[15.4 µM], ?, -4%, 0.3%, 1, ?
- Cc1ccc(NS(=O)(=O)c2cc(NC(=O)c3ccc4c(c3)NC(=O)CS4)ccc2C)c(C)c1
    0, 5%[15.4 µM], 6.8, 10µM*, ., -3, -19%
- CCOC(=O)CSc1nnc(C)c(C)n1
    -6, ., ., ., -2.4%, ., 6%
- COc1ccccc1N1CCN(C(=O)C(=O)c2c(C)[nH]c3ccccc23)CC1
    4, -2%, ., 6%, -2.0%, -6, -9%
- Cc1cccc(NC(=O)CSc2nc3ccccc3nc2N2CCCC2)c1
    0, 21%, 9.1, ?, -20%, -14, -10%
- O=C(CCNC(=O)c1ccco1)Nc1ccccc1OC(F)F
    8, 19%, -1.5, 5%, ., -19, 1%
- COc1cccc(NC(C)=[N+](C)CCNS(=O)(=O)c2ccc(Cl)cc2)c1
    -9, 3%, ., -25%, 0.1%, 3, 0%
- COCCNC(=O)CN1CCN(Cc2cccc(Cl)c2)C1=O
    -14, 3%, 1.8, 30%[activator], 0.6%, -8, 5%
- C/C(=N\NC(=O)c1ccoc1C)c1ccc(Cl)s1
    -16, 23%, -3.0, 12%, 5.6%, -16, 0%
- CCOC(=O)C(=O)c1cn(C2OCC(OC(C)=O)C(OC(C)=O)C2OC(C)=O)c2ccccc12 (configuration not stated)
    3, 12%[15.4 µM], 1.8, 13%, -5.8%, 0, -3%
- CCc1ccc(OCC(=O)NCc2ccco2)c(Br)c1
    -6, -3%, 1.4, -29%, -0.3%, 2, -10%
- O=C(NC1CCCCCC1)c1ccc(Cl)c(S(=O)(=O)N2CCOCC2)c1
    15, -38%[inhibitor], -0.4, 9%, ., -17, -7%
- CCCn1c(C(O)c2ccc(C)cc2)nc2ccccc21 (configuration not stated)
    -5, -12%, -6.0, 13%, 1.6%, 28, -6%
- CCCCNC(=O)c1onc(CSc2ccccc2C)c1C(=O)O
    39, ., 0.0, -17%, 1.2%, 5, ?
- Cc1cc(Cl)c2oc(C(=O)N(C)CC3CCOCC3)c(C)c2c1
    37, -3%, -3.3, -9%, -3.5%, -5, 5%
- COc1cccc(NC(=O)NCCC2=CCCCC2)c1
    13, -4%, 9.1, 21%, 0.5%, -2, 8%
- COc1ccc2nc(C)cc(SCC(=O)N/N=C/c3cccc4ccccc34)c2c1
    -1, -43%[inhibitor], -0.4, ?, ?, -6, 5%
- COc1ccc(NC(=O)c2ccc(Cl)c(S(=O)(=O)N3CCc4ccccc4C3)c2)cn1
    23, 3%, -1.4, 7%, -18%, 23, ?
- Cc1cc(NC(=O)CSc2nnc3c(C)cc4c(C)ccc(C)c4n23)no1
    -5, 9%, 1.0, -4%, -4.5%, 19, -1%
- CCOC(=O)C1C(=O)NC(C(=O)OCC)(C(=O)OCC)C1CC (configuration not stated)
    3, -6%, ., ., ., ., 10%
- Cc1ccc(S(=O)(=O)NC(=O)c2ccc(Br)o2)cc1
    -15, -14%, -1.8[94.6 µM], 7%&35%, 1.5%, 15, 1%
- COc1ccc(C(=O)Nc2ccccc2C(=O)NCCCn2ccnc2)cc1
    -6, -8%, 4.6, -8%, -1.6%, 15, -2%
- Cc1cccc(N2CCCn3c2nc2c3c(=O)[nH]c(=O)n2C)c1
    ., 2%, 0.4, 4%, -2.2%, 20, -4%
- CS(=O)(=O)N(CC(=O)Nc1ccc(S(=O)(=O)N2CCOCC2)cc1)c1cccc(F)c1
    -4, 2%, 0.1, 9%, -1.0%, 3, -11%
- O=C(CCn1cnc2ccccc21)N=Nc1c(O)[nH]c2ccccc12
    23, -1%, 1.1, 6%, -0.9%, 4, 0%
- COC(=O)Cc1cc(=O)[nH]c(Nc2nc3ccccc3o2)n1
    39, 17%, 4.3, 2%, -14%, -1, -10%
- Cc1sc2nc(CSC(C)C(=O)N(C)CC(=O)Nc3ccccc3C(F)(F)F)[nH]c(=O)c2c1C (configuration not stated)
    -13, ?, ., ., -2.2%, 10, -15%
- COc1ccccc1NC(=O)c1c(C)oc2c1CCCC2
    9, ?, -1.6, -4%, -0.6%, 0, -18%

# Sfp PPTase inh, entries above that show a hit
Structure	TRPML1 blocker	gsp ag	Menin MLL FP FL	Sfp PPTase inh	gsp antagonist
O=C(O)c1cccc(S(=O)(=O)Nc2ccc3oc(=O)sc3c2)c1	13	?	8.5	11µM*	7%
COCc1[nH]c(=S)c(C#N)cc1C(=O)OC	13	19%[15.4 µM]	6.6	8.9µM*	0%
Cc1ccc(NS(=O)(=O)c2cc(NC(=O)c3ccc4c(c3)NC(=O)CS4)ccc2C)c(C)c1	0	5%[15.4 µM]	6.8	10µM*	-19%

# (further entries)
# Fields: TRPML1 blocker, gsp ag, Menin MLL FP FL, Sfp PPTase inh, ClpP mod, TRPV1 PAM, gsp antagonist
- COc1ccc(C)c2sc(N(CCCN(C)C)C(=O)c3ccc(S(=O)(=O)N(C)C)cc3)nc12
    17, -17%, -3.6, -11%, -0.5%, -22, -4%
- CCC(CC)c1nnc(NS(=O)(=O)Cc2ccccc2)s1
    -24, ?, 5.6, ?, 1.4%, -8, -14%
- COc1ccccc1CN1C[C@@H]2C[C@@H](c3[nH]c4ccc(C)cc4c3C)N3CCC[C@@]23C1=O
    8, -26%, 10, 1%, ., 6, -6%
- O=C(Nc1nnc(Cc2ccccc2)s1)c1ccco1
    25, -8%, 1.1, 16%, 1.9%, -1, 3%
- O=C(CNc1cc(S(=O)(=O)N2CCOCC2)ccc1NCC1CCCO1)Nc1ccc(C(F)(F)F)cc1 (configuration not stated)
    -21, -7%[15.4 µM], ., ., ., 10, -3%
- O=C(Nc1ccc(F)cc1F)c1ccc2c(=O)n3c(nc2c1)CCC3
    -11, -2%, ., ., -2.6%, 5, -10%
- FC(F)(F)c1ccccc1NC(=S)N1CCCC1
    -12, -10%[15.4 µM], -4.1, ?, ., -1, -15%
- CC(C)(C)c1ccc(-n2ncc3c2CCCC3NC(=O)CCC2=NNC(=O)CC2)cc1 (configuration not stated)
    28, -17%, ., ., -1.5%, ., .
- CCOc1ccc2nc(COC(=O)c3cccs3)c(C(C)=O)[n+]([O-])c2c1
    5, 0%[15.4 µM], 3.0, -26%, ., 4, 8%
- COc1ccc(NC(=O)Nc2cccc3c2O[C@H](CN(C)S(C)(=O)=O)[C@@H](C)CN([C@H](C)CO)C3=O)cc1
    -5, ., ., ., -1.5%, ., 4%
- CCn1c(SC)nnc1C1CCN(S(=O)(=O)c2ccc(OC)cc2)CC1
    2, -4%, 8.3, 27%, -1.5%, 0, 3%
- COc1ccc(N2C(=O)CC(N3CCN(Cc4ccc5c(c4)OCO5)CC3)C2=O)cc1 (configuration not stated)
    -16, -8%[15.4 µM], -2.4, -16%, ., 1, 15%
- CC1(C)OC(=O)C(=CNC(CO)C(=O)O)C(=O)O1 (configuration not stated)
    1, -10%[15.4 µM], -0.7, -13%, ., 3, 12%
- Cc1cc(SCC(=O)c2cccs2)n2nc(C)c(-c3ccc(Cl)cc3)c2n1
    -5, -2%, ., -6%, 21%, -4, 5%
- O=c1cc(CSc2ccc(S(=O)(=O)N3CCCCC3)cn2)nc2sccn12
    -1, ?, -1.1, 10%, -4.5%, 5, -4%
- COC1(OC)N=C(N)C2(C#N)C(c3ccc(F)cc3)C12C#N (configuration not stated)
    -13, ?, -6.9, 5%, -2.5%, -34, 16%
- COc1ccc(Cc2noc(-c3ccc(C)cc3)n2)cc1
    -19, 20%, 1.1, -10%, -2.1%, -4, -22%
- Cc1c(Cl)cccc1NC(=S)N1CCCN(Cc2ccccc2F)C1
    3, -21%[15.4 µM], 0.6, 27%, ., 8, -1%
- O=C(Nc1cccc(F)c1)c1ccco1
    -12, ?, -0.1, 7%, -1.5%, -2, 2%
- C/C(=N\N1C(C)CCCC1C)c1ccccc1O (configuration not stated)
    12, 28%, -11, 9%, ., -18, 10%
- COc1ccc(-c2cc3cc(C(=O)O)ccn3c2C(=O)c2ccccc2)cc1
    5, -23%, 2.6, 13%, 2.0%, -5, ?
- CCOC(=O)C(NCCc1ccccc1)(NC(=O)CC)C(F)(F)F (configuration not stated)
    5, -33%[inhibitor], -4.4, 14%, 18%, -4, 12%
